Compound activity from PubChem.
NPYLR7 ag: mosquito NPYLR7 agonism. HEK293T NPYLR7/Galpha15, GCaMP6s calcium fluorescence. hit rate 0.15% among 270,000. activation, % at 10 µM. AID 1259423; in the data active = activation above about 40%;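 note: 0% = vehicle and 100% = reference agonist at the receptor; some compounds past the cut are filed as inactive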
NPYLR7 ag max-min: second read-out of NPYLR7 ag, no call of its own (marks repeat the call); activation, %; measured here: Max-Min RFU normalised activation; some inactives read as strong as hits;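 span of the calcium signal over five minutes; 0% = vehicle and 100% = native peptide agonist; compound fluorescence can raise it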
An asterisk follows results filed as active; & = joins results of further samples. Only part of the results is shown; rates above refer to the full screens.

Preview:
`CCOc1ccc2ccccc2c1C(=O)N1CCC(c2ccccc2)CC1` gave NPYLR7 ag -1 and NPYLR7 ag max-min -6.
O=C(CCc1cc(Cl)no1)NC1CCC(n2cnnc2)CC1 (stereo unspecified) was read as NPYLR7 ag 5 and NPYLR7 ag max-min 4.
COC(=O)c1c(C)cc(OC(C)=O)c(C)c1OC(C)=O was read as NPYLR7 ag 6 and NPYLR7 ag max-min 8.

The whole of this part, from the start:
`CCOc1ccc2ccccc2c1C(=O)N1CCC(c2ccccc2)CC1` gave NPYLR7 ag -1 and NPYLR7 ag max-min -6.
O=C(CCc1cc(Cl)no1)NC1CCC(n2cnnc2)CC1 (stereo unspecified) was read as NPYLR7 ag 5 and NPYLR7 ag max-min 4.
COC(=O)c1c(C)cc(OC(C)=O)c(C)c1OC(C)=O was read as NPYLR7 ag 6 and NPYLR7 ag max-min 8.
Screening N=c1oc2ccc(Cl)cc2cc1C(=O)NCc1ccccc1 returned NPYLR7 ag 3 and NPYLR7 ag max-min 0.
`O=C(Nc1n[nH]c(=S)s1)c1ccco1` gave NPYLR7 ag 1 and NPYLR7 ag max-min 1.
CCOC(=O)C1(Cc2ccc(Cl)cc2)CCN(Cc2cc(C(C)C)n[nH]2)CC1 was read as NPYLR7 ag 0 and NPYLR7 ag max-min 3.
For CC1Cc2cc(-c3cc(CNC(=O)c4ccc(=O)oc4)no3)ccc2O1 (stereo unspecified) the results were NPYLR7 ag 1 and NPYLR7 ag max-min -2.
COc1ccc(-c2noc(CSc3nnc(C4CC4)n3C3CC3)n2)cc1 was read as NPYLR7 ag 6 and NPYLR7 ag max-min 15.
Screening COc1ccc(-c2nn3c(N4CCOCC4)cc(C)nc3c2C)cc1OC returned NPYLR7 ag 5 and NPYLR7 ag max-min 12.
Screening CC1(C)OC(=O)C(=Cc2cccn2-c2ccc(S(N)(=O)=O)cc2)C(=O)O1 returned NPYLR7 ag -1 and NPYLR7 ag max-min -2.
CCN(CC)S(=O)(=O)N1CCN(C(=O)c2cccnc2Cl)CC1 was read as NPYLR7 ag -6 and NPYLR7 ag max-min -5.
`O=C(NCc1ccccn1)C1CN(c2cnc3ccccc3n2)CCN1` (stereo unspecified) gave NPYLR7 ag -6 and NPYLR7 ag max-min -10.
For Oc1cc(-c2ccc(Cl)cn2)cc2c1OCCNC2 the results were NPYLR7 ag 9 and NPYLR7 ag max-min -1.
`O=C(Cc1ccc(Cl)cc1)NCCSc1ncc(-c2ccccc2)[nH]1` gave NPYLR7 ag 2 and NPYLR7 ag max-min 0.
For O=C(NCCn1nc(-c2ccco2)ccc1=O)NC1CCCCC1 the results were NPYLR7 ag 12 and NPYLR7 ag max-min 8.
`Cc1ccc(-c2nccn2C(C)c2nc(-c3ccccn3)no2)o1` (stereo unspecified) gave NPYLR7 ag 1 and NPYLR7 ag max-min 12.
`C=CCNc1ccccc1C(=O)N(C)Cc1csc(C(C)C)n1` gave NPYLR7 ag 11 and NPYLR7 ag max-min 6.
Cc1cccc(N2CCN(CC(=O)N3CCCC(N(C)C)CC3)CC2)c1 (stereo unspecified) was read as NPYLR7 ag 1 and NPYLR7 ag max-min -2.
Screening CCc1nc(C2CN(C(C)C(=O)Nc3cc(C)on3)CCO2)n[nH]1 (stereo unspecified) returned NPYLR7 ag 1 and NPYLR7 ag max-min 1.
`Cc1cc(F)ccc1NC(=O)c1cc(=O)[nH]c2ccccc12` gave NPYLR7 ag -5 and NPYLR7 ag max-min -6.

Three entries picked at random from those above:
`O=C(NCc1ccccn1)C1CN(c2cnc3ccccc3n2)CCN1` (stereo unspecified) gave NPYLR7 ag -6 and NPYLR7 ag max-min -10.
For Oc1cc(-c2ccc(Cl)cn2)cc2c1OCCNC2 the results were NPYLR7 ag 9 and NPYLR7 ag max-min -1.
For O=C(NCCn1nc(-c2ccco2)ccc1=O)NC1CCCCC1 the results were NPYLR7 ag 12 and NPYLR7 ag max-min 8.

(more compounds)
CSCCC(NS(=O)(=O)c1cccs1)C(=O)O (stereo unspecified) was read as NPYLR7 ag 21&8 and NPYLR7 ag max-min 19&8.
For Cc1nc(N2CCC(C(=O)NC(C)c3cccs3)CC2)nc2cc(S(C)(=O)=O)ccc12 (stereo unspecified) the results were NPYLR7 ag 23 and NPYLR7 ag max-min 6.
For CN(CC(=O)NC(N)=O)c1ccc(Br)cc1F the results were NPYLR7 ag 5 and NPYLR7 ag max-min 0.
`CC1(C(=O)NS(=O)(=O)c2ccc(C#N)cc2)CCN1C(=O)C1(c2ccc(Cl)cc2)CCC1` (stereo unspecified) gave NPYLR7 ag 2 and NPYLR7 ag max-min 1.
Screening COc1ccc(CNC2CC(=O)N(c3ccc(F)cc3)C2=O)cc1 (stereo unspecified) returned NPYLR7 ag 2 and NPYLR7 ag max-min -2.
For N[C@H]1CCOC[C@@H](O)C1 the results were NPYLR7 ag 6 and NPYLR7 ag max-min 5.
Screening O=C(NC1CCN(Cc2ccccc2)C1)C1CC=CCC1C(=O)N1CCN(c2ccccn2)CC1 (stereo unspecified) returned NPYLR7 ag -7 and NPYLR7 ag max-min -11.
`O=C(CC1COCCN1)NCc1cn2ccccc2n1` (stereo unspecified) gave NPYLR7 ag -6 and NPYLR7 ag max-min -6.
`COc1cccc(-c2ccccc2CO)n1` gave NPYLR7 ag 4 and NPYLR7 ag max-min 1.
Screening CSc1ccc(CN(C)C(C(=O)NC2CC2)c2ccc(F)cc2)cc1 (stereo unspecified) returned NPYLR7 ag -3 and NPYLR7 ag max-min -3.
Screening C=C(NC(=O)C(=C)NC(=O)c1csc(C2=N[C@H]3c4csc(n4)[C@H]4NC(=O)c5csc(n5)[C@H]([C@@](C)(O)[C@@H](C)O)NC(=O)[C@H]5CSC(=N5)/C(=C\C)NC(=O)[C@H]([C@@H](C)O)NC(=O)c5csc(n5)[C@]3(CC2)NC(=O)[C@H](C)NC(=O)C(=C)NC(=O)[C@H](C)NC(=O)[C@H](C(C)CC)N[C@@H]2C=Cc3c([C@H](C)O)cc(nc3[C@H]2O)C(=O)O[C@@H]4C)n1)C(N)=O (stereo partly specified) returned NPYLR7 ag -2 and NPYLR7 ag max-min -8.
For COc1ccc(/C=C2\N=C(c3ccc4c(c3)OCO4)OC2=O)cc1OC the results were NPYLR7 ag 0 and NPYLR7 ag max-min -6.
For CC(C)c1nnc(NC(=O)c2ccc(-n3cccn3)c(F)c2)s1 the results were NPYLR7 ag 8 and NPYLR7 ag max-min 3.
`CC1(C(=O)NS(=O)(=O)c2cccc(F)c2)CCN1C(=O)CC(c1ccccc1)c1ccccc1` (stereo unspecified) gave NPYLR7 ag 3 and NPYLR7 ag max-min 2.
For COc1ccc(-c2ccc(=O)n(CCNC(=O)c3ccc(C(C)(C)C)cc3)n2)cc1 the results were NPYLR7 ag 2 and NPYLR7 ag max-min 2.
For Cc1ccc([N+](=O)[O-])cc1N=Cc1nc(-c2ccccc2F)oc1O the results were NPYLR7 ag -4 and NPYLR7 ag max-min -10.
For Cc1c(C)c2cc(CN3CCN(C)CC3)c(O)c(C)c2oc1=O the results were NPYLR7 ag -3 and NPYLR7 ag max-min 0.
Cc1cnc(C(=O)NC(C)c2ccc(Cl)c(Cl)c2)cn1 (stereo unspecified) was read as NPYLR7 ag 8 and NPYLR7 ag max-min 9.
For COc1ccc(OC)c(S(=O)(=O)NC(=O)C2(C)CCN2C(=O)C2(c3ccccc3)CC2)c1 (stereo unspecified) the results were NPYLR7 ag 4 and NPYLR7 ag max-min 1.
For CC(C)C(=O)NCCNC(=O)COc1ccc(Cl)cc1Cl the results were NPYLR7 ag 3 and NPYLR7 ag max-min 2.
Screening Cc1nnc(C2CCCN(C(=O)CC(C)(C)C)C2)s1 (stereo unspecified) returned NPYLR7 ag 1 and NPYLR7 ag max-min 7.
`CNC(=O)c1ccc(S(=O)(=O)N(Cc2ccc(C)o2)C(C)C)cc1` gave NPYLR7 ag -4 and NPYLR7 ag max-min -2.
CC1CCN([C@@H]2[C@H](O)[C@H](CO)O[C@@H]2CN)CC1 was read as NPYLR7 ag -7 and NPYLR7 ag max-min -11.
CCCCc1ccc(-c2nc(C=Nc3nccs3)c(O)o2)cc1 was read as NPYLR7 ag -6 and NPYLR7 ag max-min -14.
`OCc1cn(C2CCN(Cc3ccc4c5c(cccc35)CC4)CC2)nn1` gave NPYLR7 ag -2 and NPYLR7 ag max-min -2.
For COCCN(Cc1cccs1)C(=O)c1ccc2nc[nH]c2c1 the results were NPYLR7 ag 3 and NPYLR7 ag max-min 1.
CCS(=O)(=O)Oc1cccc(CN(Cc2ccco2)C(=O)Nc2ccc(Cl)cc2)c1 was read as NPYLR7 ag -14 and NPYLR7 ag max-min -16.
CN(CC1CCCNC1)C(=O)c1cccc(NCc2cccs2)c1 (stereo unspecified) was read as NPYLR7 ag 1 and NPYLR7 ag max-min -3.
`Cc1c(CS(C)(=O)=O)cccc1NCc1ccc(C#N)cc1F` gave NPYLR7 ag 6 and NPYLR7 ag max-min 3.
COC(CNc1nc(Nc2ccc(F)cc2)c2cnn(-c3ccccc3)c2n1)OC was read as NPYLR7 ag 1 and NPYLR7 ag max-min -1.
`Cc1cc(Br)ccc1NC(=O)CN(C)C(=O)C1CC(=O)N(Cc2ccccc2)C1` (stereo unspecified) gave NPYLR7 ag -5 and NPYLR7 ag max-min -1.
`Cc1ccc(NC(=O)CSc2ccc3nnc(-c4cccnc4)n3n2)cc1` gave NPYLR7 ag 1 and NPYLR7 ag max-min -2.
CC(C)CCn1c(SCC(C)C)nc2c1c(=O)[nH]c(=O)n2C was read as NPYLR7 ag 15 and NPYLR7 ag max-min 8.
Screening CNC(=O)NC(=O)CCSC(C)c1nc(-c2ccc(C)c(F)c2)no1 (stereo unspecified) returned NPYLR7 ag 13 and NPYLR7 ag max-min 12.
For O=C(NC(Sc1ncccn1)C(=O)c1ccccc1)c1ccccc1 (stereo unspecified) the results were NPYLR7 ag -15 and NPYLR7 ag max-min -15.
For COc1cccc(C(=O)Nc2ccc(N3CCC(Cc4ccccc4)CC3)c(C(=O)NCCN3CCOCC3)c2)c1 the results were NPYLR7 ag 7 and NPYLR7 ag max-min 15.
Screening CCCCn1c(C(=O)Nc2ccc(OC)cc2OC)cc2c(=O)n(C)c(=O)n(C)c21 returned NPYLR7 ag -3 and NPYLR7 ag max-min -3.
COc1cc(OC)cc(C(=O)Nc2ccc(OC3CCN(C(=O)OC(C)(C)C)C3)cc2)c1 (stereo unspecified) was read as NPYLR7 ag 5 and NPYLR7 ag max-min 2.
Screening COc1ccc(-c2oc3ccccc3c(=O)c2O)cc1OC returned NPYLR7 ag -4 and NPYLR7 ag max-min -11.
For N#Cc1cc2c(=O)n3ccccc3nc2n(Cc2ccco2)c1=NC(=O)c1ccc(Cl)cc1 the results were NPYLR7 ag 2 and NPYLR7 ag max-min -4.
For COc1c(C(=O)Nc2ccc(Cl)c(C#N)c2)c(C)nn1C the results were NPYLR7 ag 12 and NPYLR7 ag max-min 3.
COc1ccc(-n2c(SCc3ccc(C(=O)N4CCN(c5ccccc5F)CC4)cc3)nnc2-c2ccc([N+](=O)[O-])cc2)cc1 was read as NPYLR7 ag 23 and NPYLR7 ag max-min 15.
O=C(c1cccs1)N(Cc1nccn1Cc1ccccc1Cl)CC1CC1 was read as NPYLR7 ag 8 and NPYLR7 ag max-min 17.
For COc1cc(C(=O)N2CCCN(C)C3(CCN(C)CC3)C2)nc(OC)n1 the results were NPYLR7 ag 8 and NPYLR7 ag max-min 6.
`CCOc1ccc(Cc2nnc(Nc3cccc(C)c3)[nH]c2=O)cc1` gave NPYLR7 ag 10 and NPYLR7 ag max-min 3.
COc1ccc(-n2cc(CN[C@@H](CC(C)C)C(N)=O)c(-c3ccccc3Cl)n2)cc1 was read as NPYLR7 ag 18 and NPYLR7 ag max-min 6.
Screening CC1(CCc2ccc(O)cc2)NC(=O)c2ccccc2N1 (stereo unspecified) returned NPYLR7 ag 18 and NPYLR7 ag max-min 15.
Screening CC1(Cc2ccc(Cl)s2)C(=O)Nc2c(Cl)ccc(Cl)c21 (stereo unspecified) returned NPYLR7 ag 2 and NPYLR7 ag max-min 0.
O=C(NC(c1ccccc1)c1ccc2ccccc2n1)C1CCN(CCOc2ccccc2)CC1 (stereo unspecified) was read as NPYLR7 ag 13 and NPYLR7 ag max-min 4.
CCCn1nc(C)c(CNc2nc(CCN)nc3ccccc23)c1C was read as NPYLR7 ag 9 and NPYLR7 ag max-min 6.
COc1cc(CN2CCN(C3CCCCC3)C(CCO)C2)cc(Cl)c1O (stereo unspecified) was read as NPYLR7 ag -2&3 and NPYLR7 ag max-min -1&-1.
For Cc1ccc(-c2nc3ccccn3c2NC(=O)CCC2CCCC2)cc1 the results were NPYLR7 ag -3 and NPYLR7 ag max-min 1.
Screening C(=N/n1cnnc1)/c1cccc(OCc2cccc3ccccc23)c1 returned NPYLR7 ag -5 and NPYLR7 ag max-min -14.
Screening N#CCCN(CCC#N)C(=S)NC(=O)c1ccco1 returned NPYLR7 ag -9&3 and NPYLR7 ag max-min -8&1.
Cc1cc(C(=O)N2C[C@H](O)[C@H]3C[C@@H]2CC[C@@H]3O)n(C)n1 was read as NPYLR7 ag 23 and NPYLR7 ag max-min 33.
